# Compound activity (PubChem)
# HCMV NEC inh – cytomegalovirus nuclear egress complex inhibition | 190,000 compounds, 0.15% hits | AID 1918969 | HTRF UL50-UL53 interaction, normalized percent inhibition | inhibition, % (test concentration not listed);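 active = both replicates at 50% or more, plus weaker picks with an unusually low signal ratio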;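 also: stock transfer was 100 nL into about 20 µL; 0% = negative control wells and 100% = wells with untagged competitor protein; inactives centre near -12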
# Sa growth inh – blocks Staphylococcus aureus growth; relative growth, % (test concentration not listed); AID 720641; 170,000 compounds, 0.53% hits; S. aureus RN4220 growth, OD600, 20 h, 42 °C; hits give low values;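 active = growth at 42 °C up to 50% and 20 or more points under that at 30 °C, or under 10% at both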;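 also: 300 nL library stock went into each well; scaled to the means of positive and negative controls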
# GIV-Gai inh – inhibitors of GIV GBA-motif binding to rat Galpha-i3; P08753; Galpha-i3/FITC-GIV peptide fluorescence polarization, 90 min; hits give low values; scaled: aluminum fluoride 0%, vehicle 100%; percent of control (FP), % (no concentration beside the values); 210,000 compounds, 0.42% hits;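 active = replicate mean at 85% of control or lower, very high polarization wells dropped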;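 also: wells of about 15 µL received 100 nL stock; the first replicate is given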
# Target sequence (P08753 whole entry, looked up): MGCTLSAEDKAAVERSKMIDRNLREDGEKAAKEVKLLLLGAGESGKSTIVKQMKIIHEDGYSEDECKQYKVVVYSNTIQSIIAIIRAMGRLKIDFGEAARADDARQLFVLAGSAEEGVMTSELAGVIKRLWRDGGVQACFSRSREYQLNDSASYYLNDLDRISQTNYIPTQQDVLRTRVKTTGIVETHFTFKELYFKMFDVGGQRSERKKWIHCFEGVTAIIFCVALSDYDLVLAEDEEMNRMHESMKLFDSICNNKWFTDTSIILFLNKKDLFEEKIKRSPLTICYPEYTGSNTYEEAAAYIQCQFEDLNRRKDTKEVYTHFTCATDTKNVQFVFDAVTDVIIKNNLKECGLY
# Sa growth inh second temp – further read-out of Sa growth inh, marked with its call; relative growth, %; measured here: growth at 30 °C;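 optical density after 20 h as mean of two plates; 100% = untreated growth and lower means inhibition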
# The depositor's hits bear a star; nt = not tested or not shown; & = joins results of further samples. Rows are unselected, and some 0.83% of all compounds hit somewhere here.
molecule	HCMV NEC inh	Sa growth inh	Sa growth inh second temp	GIV-Gai inh
COc1ccc(NC(=O)CSC2=Nc3ccccc3C3=NC(Cc4ccccc4)C(=O)N23)cc1 (stereo unspecified)	nt	79	80	99
CCC(=O)Nc1ccccc1C(=O)OCC(=O)Nc1nc2ccc(C(=O)OC)cc2s1	4	96	59	nt
CCOc1ccnc2c1c(=O)n(CC(=O)N1CCCc3ccccc31)c(=O)n2C	-5	nt	nt	105
CCCNC(=O)c1cnn2c(C(F)F)cc(-c3ccccc3)nc12	-38	102	82	100
CCCCN(C)C(=O)C1CCCN(S(=O)(=O)c2cc3c(cc2C)NC(=O)C(CC)O3)C1 (stereo unspecified)	-10	nt	nt	104
CCOC(=O)COc1c(Cl)cc(/C=C2/NC(=O)NC2=O)cc1OC	-72	84	85	103
CCOc1ccc(CCNC(=O)c2nc(-c3cccc(F)c3)n3c2CCCCC3)cc1OCC	nt	95	100	114
CCCCn1c(=N)n(CCOc2ccccc2)c2ccccc21	nt	104	51	103
COc1ccc(N2CCN(C(=O)CCc3c(C)nc4cc(-c5ccc(OC)cc5OC)nn4c3C)CC2)cc1	-5	96	102	107
CCOc1ccccc1N(CC(=O)Nc1c(C)n(C)n(-c2ccccc2)c1=O)S(=O)(=O)c1ccccc1	10	nt	nt	104

# 3 entries already listed, ordered by the number in GIV-Gai inh, lowest first:
mol,GIV-Gai inh
CCOC(=O)COc1c(Cl)cc(/C=C2/NC(=O)NC2=O)cc1OC,103
CCOc1ccccc1N(CC(=O)Nc1c(C)n(C)n(-c2ccccc2)c1=O)S(=O)(=O)c1ccccc1,104
CCOc1ccc(CCNC(=O)c2nc(-c3cccc(F)c3)n3c2CCCCC3)cc1OCC,114

# (further entries)
molecule	HCMV NEC inh	Sa growth inh	Sa growth inh second temp	GIV-Gai inh
CCCSc1nc2ccc(S(=O)(=O)N3CCOCC3)cc2[nH]1	-6	68	78	nt
COc1ccc(Br)cc1CNC(=O)c1ccc2c(c1)N(Cc1ccc(C)cc1)CCS2	-19	101	93	104
CCOc1cc(C2CC(=O)Nc3c2c(=O)nc(SCc2cccc(Cl)c2)n3C)ccc1O (stereo unspecified)	-8	97	82	103
CC1CC(C)CN(S(=O)(=O)c2ccc(N)cc2)C1 (stereo unspecified)	-1	88	99	nt
Fc1ccc2c(c1)nc(N1CCCNCC1)c1cccn12	9	nt	nt	101
O=C(CSc1nc(O)c(C2CCCCC2)c(=O)[nH]1)NCC1CCCO1 (stereo unspecified)	-10	98	78	106
O=C(O)CCC(=O)Nc1ccc(-c2ccccc2)cc1	-15	106	110	98
CCOC(=O)c1cccc(NC(=O)N2CC(CC)Oc3ccccc32)c1 (stereo unspecified)	-15	99	92	105
CCN1C(=O)C2(c3ccccc31)c1c(oc3ccccc3c1=O)C(=O)N2CCO (stereo unspecified)	nt	106	87	102
CCn1c(=O)c(N2CCC(C(=O)Nc3ccc(OC)c(Cl)c3)CC2)c(C)n(-c2ccccc2)c1=O	-20	nt	nt	108
CN(C)c1nc(Oc2ccc(=O)n(C)n2)nc(N2CCCCC2)n1	nt	108	88	103
O=C(c1ccccc1)N1CN(C(=O)c2ccccc2)CN(C(=O)c2ccccc2)C1	nt	122	81	105
COc1ccc(-c2nnc(SCc3cc(=O)n4[nH]c(-c5ccccc5)nc4n3)n2C)cc1	-2	nt	nt	104
O=C(O)Cc1ccc(C(F)(F)F)cc1	-11	85	87	nt
Cc1ccccc1OCCn1cc(C(=O)c2ccco2)c2ccccc21	0	100	91	105
CCOC(=O)C1=C(C)N=c2s/c(=C/c3cccc([N+](=O)[O-])c3)c(=O)n2C1c1ccc(OC(C)=O)cc1 (stereo unspecified)	-21	nt	nt	107
Clc1ccc(-c2nnc(Cc3csc(-c4cccs4)n3)o2)cc1	-3	109	104	105
Cc1ccc(CNC(=O)CCCCCn2c(=O)[nH]c3ccccc3c2=O)cc1	nt	118	100	108
COc1ccc(C2CC(=O)N(c3ccc(F)c(F)c3)C(=O)C2)cc1OC	-23	nt	nt	100
O=C(O)c1ccc2nc(CCc3nc4ccc(C(=O)O)cc4[nH]3)[nH]c2c1	nt	109	94	107
CCc1cccc(-n2nnc(-c3nc(-c4ccccc4Cl)no3)c2N)c1	nt	99	84	99
CCSc1nc(NC(N)=O)c2c3c(sc2n1)CC(C(C)(C)C)CC3 (stereo unspecified)	-25	nt	nt	105
Cc1ncoc1C(=O)NC(c1ccccc1)c1ccccc1	-2	107	97	102
CC(C)c1ccc(CNc2nc(N)n(-c3ccccc3)n2)cc1	9	93	97	106
COCCN=c1scc(-c2ccc(OC(F)F)cc2)n1/N=C/c1ccc[nH]1	-26	82	86	nt
COC(=O)c1ccc2c(c1)C(=O)/C(=C/c1cn(-c3ccccc3)nc1-c1ccco1)O2	-33	46	24	151
O=C(NC1CCN(Cc2ccccc2)CC1)C1CC(=O)N(Cc2ccco2)C1 (stereo unspecified)	-5	96	94	99
CN1N=C(C(C)(C)C)CSC1=Nc1ccccc1	-22	92	85	97
COc1ccc(-c2ccc3c(N)c(C(=O)c4ccc(OC)c(OC)c4)sc3n2)cc1	0	115	79	232
CCO/C=C1\C(=O)N(C)C(=O)c2ccccc21	77*	95	90	nt
O=c1[nH]c2ccc(Cl)cc2c2oc(-c3ccccc3)nc12	-9	119	88	106
CCOC(=O)c1ccc(CN(Cc2ccccc2C)S(=O)(=O)c2ccc(C(C)(C)C)cc2)cc1	nt	104	89	97
N#CC(C#N)c1nc2cc3c(cc2nc1Cl)OCCO3	-90	100	85	nt
Cc1[nH]n(-c2ccc([N+](=O)[O-])cc2)c(=O)c1C=NCc1ccc2c(c1)OCO2	-33	nt	nt	104
C=CCN1C(=O)/C(=C\c2ccc(OCC(=O)O)c(OC)c2)SC1=S	-98	84	68	116
CCN(C(=O)CN1CCCCC1)c1nc2ccc(C)cc2s1	-42	99	100	97
CCCCN1C(=O)C(O)(c2c(C)nn(CCC#N)c2N)c2ccccc21 (stereo unspecified)	-20	101	92	nt
O=C(Cc1cn2ccsc2n1)N/N=C1\CCCCc2ccccc21	-22	96	93	nt
CC(C)N1C(=O)S/C(=C/c2ccccc2OCc2ccc(C(=O)O)cc2)C1=O	nt	69	24	101
O=C(Cn1c(=O)n(CCCS(=O)(=O)C2CCCCC2)c(=O)c2ccccc21)c1ccccc1	-1	99	85	101
NS(=O)(=O)c1ccc(CNS(=O)(=O)Cc2ccccc2)cc1	-26	96	91	107
CCc1ccc(S(=O)(=O)Nc2ccc3oc(C)c(C(=O)OCCOC)c3c2)cc1	-30	99	82	108
O=C(Oc1ccc2c(c1)OCO2)c1ccc2c(c1)OCCO2	4	117	102	nt
COc1cccc(C2CC(=O)Nc3nc(N)[nH]c(=O)c32)c1OC (stereo unspecified)	22	nt	nt	102
COc1ccc(NC(=O)C2c3cc(OC)c(OC)cc3C(=O)N(C)C2c2cccnc2)cc1OC (stereo unspecified)	17	nt	nt	101
O=C(CCn1c(=S)[nH]c2c(sc3ccccc32)c1=O)NC1CCCCC1	nt	101	97	105
Cc1ccc(CNc2c(C(=O)O)cnn2Cc2ccc(C)cc2)cc1	-5	109	84	99
COc1ccc(Nc2nc3c(S(=O)(=O)c4ccc(Br)cc4)nnn3c3ccsc23)c(OC)c1	nt	108	81	100
O=C(c1ccccc1)c1ncc[nH]1	-37	82	87	103
O=C(O)CCN(C(=O)C1C2C=CC(C2)C1C(=O)O)c1ccccc1 (stereo unspecified)	-22	88	100	92

# Random excerpt: two compounds from above
molecule	HCMV NEC inh	Sa growth inh	Sa growth inh second temp	GIV-Gai inh
CCc1ccc(S(=O)(=O)Nc2ccc3oc(C)c(C(=O)OCCOC)c3c2)cc1	-30	99	82	108
COc1ccc(NC(=O)C2c3cc(OC)c(OC)cc3C(=O)N(C)C2c2cccnc2)cc1OC (stereo unspecified)	17	nt	nt	101

# Later entries.
molecule	HCMV NEC inh	Sa growth inh	Sa growth inh second temp	GIV-Gai inh
COc1ccc(C2CC(=O)c3c([nH]c(C(=O)OCc4ccccc4)c3C)C2)cc1 (stereo unspecified)	-4	116	93	105
CC(=O)N1N=C(c2ccccc2C)OC1c1cc(-c2ccccc2)nc2ccccc12 (stereo unspecified)	0	nt	nt	106
CSc1nsc(SCC(=O)NC2=NC(=O)C(C)S2)n1 (stereo unspecified)	-43	94	72	104
Nc1nonc1C(=NCc1ccccc1)NO	-9	103	76	101
Cc1cccc(NC(=O)c2ccccc2)n1	-21	100	81	95
CCC(C)(C(=O)NC1CCCCC1)N(C)C(=O)c1ccccn1 (stereo unspecified)	nt	106	89	97
CCOc1ccc(NC(=O)CCC(=O)n2nc(C)cc2C)cc1	4	93	105	nt
CCc1nn(Cc2cccc(F)c2)c(=O)c2cc3cc(C)ccc3n12	-15	113	85	103
CC(C(=O)O)N1C(=O)C2CC=CCC2C1=O (stereo unspecified)	-3	87	93	nt
CC1(c2ccccc2)OC(=O)C2C3CCCCC3=C3CCCCC3C21 (stereo unspecified)	nt	110	82	104
Cc1ccc(CN(C(=O)COc2ccc(C)c(C)c2)C2CCS(=O)(=O)C2)o1 (stereo unspecified)	-5	109	88	99
Cc1nnc(N2CCCC(C(=O)NCc3ccc(F)cc3)C2)c2nn(-c3ccc(Cl)cc3)c(C)c12 (stereo unspecified)	11	nt	nt	101
COC(=O)NCc1cccc(CNC(=O)OC)c1	-20	92	88	98
COc1cccc(CNS(=O)(=O)c2ccc(N3CCCCS3(=O)=O)cc2)c1	nt	99	86	98
Cc1ccc(-c2cc(C(F)(F)F)n3nc(C(=O)Nc4ccc(C#N)cc4)cc3n2)cc1	-23	73	90	103
COC(=O)Cn1ccc2cc(S(=O)(=O)N3CCCCC3)ccc21	16	98	95	106
NC(=O)COc1ccc(Nc2nnc(-c3ccccc3)c3ccccc23)cc1	-25	101	93	104
C=CCOC(=O)c1ccc(NC(C)=O)cc1	-10	104	95	103
O=S(=O)(NCc1cccn1Cc1ccccc1)c1ccc(F)c(Cl)c1	-30	nt	nt	109
O=S(=O)(NS(=O)(=O)c1ccccc1)c1ccccc1	-15	109	100	103
O=S1(=O)c2cccc3cccc(c23)N1Cc1nnc(-c2ccccc2Br)o1	5	109	91	nt
CN(CC(=O)Nc1ccc(Cl)cc1)C1CCCCN(C(=O)c2ccc(F)cc2)C1=O (stereo unspecified)	3	89	99	nt
COc1ccc(C(=O)N2CCN(Cc3cc(=O)n4nc(-c5ccccc5C)sc4n3)CC2)cc1OC	nt	100	104	101
O=C(NCc1ccccn1)c1ccc2ccccc2n1	-17	105	86	105
Cc1ccccc1C1CC(=O)Nc2n[nH]c(C)c21 (stereo unspecified)	5	nt	nt	101
Cc1nn2c3c(cnc2c1-c1ccc(F)cc1)C(=O)CC(c1cccc(Cl)c1)C3 (stereo unspecified)	-19	nt	nt	98
CCCCC1(C)OC(=O)C(=Cc2ccc3c(c2)OCO3)C(=O)O1 (stereo unspecified)	22	85	78	93
Cc1c(Cl)cccc1NC(=O)C(CC(=O)O)C1CCCO1 (stereo unspecified)	-12	111	81	104
O=S(=O)(c1ccc(S(=O)(=O)N(Cc2cccs2)C2CCCCC2)cc1)N1CCCC1	8	111	115	107
COc1ccc(C(=O)NCc2nnc(SCC(=O)Nc3cc(C)cc(C)c3)o2)cc1OC	nt	105	85	98
COc1ccc(S(=O)(=O)Nc2nc3ccccc3nc2NCC2CCCO2)cc1 (stereo unspecified)	-34	83	85	100
C=CCNCc1ccc(OC)c(OC)c1	0	106	103	113
CN(C)C(=O)COC(=O)c1cccc(C#N)c1	-36	78	86	nt
CN(Cc1nnc(-c2ccc3ccccc3c2)o1)c1nnc(C(F)(F)F)s1	-18	91	95	96
O=C1C2CCCC1C(c1ccccc1)NC2c1ccccc1 (stereo unspecified)	-4	104	92	99
Cc1ccc(-c2onc3ccc(Cl)cc23)cc1	nt	90	98	107
CCCc1cc(C(=O)OC)c(NC(=O)C2CCC2)s1	2	74	90	106
COc1cccc(-c2nc(SCc3cc(=O)c4ccc(C)c(C)c4[nH]3)n[nH]2)c1	nt	88	75	105
CCc1ccc(NC(=O)Cn2c(=O)n(CCC(=O)NCCc3ccc(Cl)cc3)c(=O)c3ccccc32)cc1	-9	104	98	106
CCc1ccc(NC(=O)N2CCSc3ncccc32)cc1	-32&3	116	94	107&102
N#Cc1c(-c2ccc(Cl)cc2)nc2n(c1=O)CCCS2	nt	109	61	102
Cc1ccc(CN(C)C(=O)COc2ccccc2-c2ccccc2)o1	-21	53	52	nt
O=C(O)CC(CC(=O)Nc1ccc2ccccc2n1)c1ccccc1 (stereo unspecified)	5	103	96	102
O=C(COC(=O)C1CCN(c2ccc(C(F)(F)F)cn2)CC1)c1ccccc1	1	123	89	nt
CC(=O)N1CCCc2cc(S(=O)(=O)NC(C(=O)NCc3ccccc3)C(C)C)ccc21 (stereo unspecified)	1	98	94	104

# A different layout for some results above:
# Below each SMILES – HCMV NEC inh	Sa growth inh	Sa growth inh second temp	GIV-Gai inh
O=C(O)CC(CC(=O)Nc1ccc2ccccc2n1)c1ccccc1 (stereo unspecified)
 : 5	103	96	102
O=C(COC(=O)C1CCN(c2ccc(C(F)(F)F)cn2)CC1)c1ccccc1
 : 1	123	89	nt
CC(=O)N1CCCc2cc(S(=O)(=O)NC(C(=O)NCc3ccccc3)C(C)C)ccc21 (stereo unspecified)
 : 1	98	94	104
